# Source: PubChem BioAssay (National Center for Advancing Translational Sciences (NCATS))
# TRPV1 PAM: HTS Assay for Compounds that Act as Potentiators of the Vanilloid Receptor 1. Transient receptor potential cation channel subfamily V member 1 (Homo sapiens), Q8NER1. TRPV1-expressing cells, Fluo-8 calcium influx, capsaicin EC20 potentiation; host cell line not named in the record; control for the full effect not named in the record. potentiation, % at 8.33 µM. 320,000 compounds, 0.02% hits; active means potentiation above 80%; inconclusive means 30% to 80%; inactive means below 30%; further: 0% is about no effect
# Target sequence (Q8NER1 whole entry, looked up): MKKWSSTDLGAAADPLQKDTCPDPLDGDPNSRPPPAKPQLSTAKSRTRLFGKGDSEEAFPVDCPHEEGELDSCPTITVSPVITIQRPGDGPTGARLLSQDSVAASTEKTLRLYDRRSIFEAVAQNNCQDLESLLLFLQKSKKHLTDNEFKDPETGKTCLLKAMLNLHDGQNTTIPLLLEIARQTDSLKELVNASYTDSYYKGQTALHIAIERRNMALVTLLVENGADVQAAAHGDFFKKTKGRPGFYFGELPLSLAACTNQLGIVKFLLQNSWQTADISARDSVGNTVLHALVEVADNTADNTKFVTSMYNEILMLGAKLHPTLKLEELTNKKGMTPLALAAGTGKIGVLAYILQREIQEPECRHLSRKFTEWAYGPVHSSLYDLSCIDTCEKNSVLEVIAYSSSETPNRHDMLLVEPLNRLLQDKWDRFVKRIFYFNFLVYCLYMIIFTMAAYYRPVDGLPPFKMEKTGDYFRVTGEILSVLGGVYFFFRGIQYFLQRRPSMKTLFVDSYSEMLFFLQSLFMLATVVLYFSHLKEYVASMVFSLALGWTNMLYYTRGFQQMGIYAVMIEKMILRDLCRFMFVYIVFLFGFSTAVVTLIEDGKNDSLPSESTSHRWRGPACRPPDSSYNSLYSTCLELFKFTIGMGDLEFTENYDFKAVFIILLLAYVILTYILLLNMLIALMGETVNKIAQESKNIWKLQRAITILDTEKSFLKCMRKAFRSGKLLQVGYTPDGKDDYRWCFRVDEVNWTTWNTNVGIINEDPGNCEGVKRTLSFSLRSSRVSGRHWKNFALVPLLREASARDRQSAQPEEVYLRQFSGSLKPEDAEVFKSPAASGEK
#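 TRPV1-expressing cells were cultured overnight at 35.5C and loaded with Fluo-8 calcium dye for 40 to 90 min at room temperature. After a 10 s baseline, compound was added and calcium influx was read kinetically for 3 min (ex 480/em 520 nm).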
# gsp ag: qHTS for Agonist of gsp, the Etiologic Mutation Responsible for Fibrous Dysplasia/McCune-Albright Syndrome: qHTS | gsp mutant cells, cAMP HTRF, 30 min; control for the full effect not named in the record | Potency, µM (top dose mostly 76.9 µM), inactives show top-dose activation (cAMP increase), actives largely listed as activators | 340,000 compounds, 0.13% hits; active = well fitted activation curve with a large enough effect; inconclusive = small, poorly fitted or top-dose-only effect, or another doubt; inactive = no such curve, though single readings can be large or run the other way; cell line not stated here;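 further: phosphodiesterase inhibitor Ro 20-1724 added with compounds to block cAMP breakdown; potency means the concentration at half of the fitted maximal effect; nearly all actives have a fitted effect of over 60% in size; about a fifth of the inactives were tested at one dose only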
#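 Cells in DMEM/10% FBS with G418 were pretreated with compounds in DMSO plus […] (300 uM stock) for 30 min at 37C. cAMP was measured by HTRF (cAMP-d2 plus anti-cAMP antibody-K) after 30 min at room temperature.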
# ClpP mod: qHTS Assay for Activators of ClpP; ATP-dependent Clp protease proteolytic subunit (Bacillus subtilis (strain 168)), P80244; purified B. subtilis ClpP, FRET peptide cleavage, 20 min; Potency, µM (doses to about 57.5 µM), inactives show top-dose activity change, negative = active; 340,000 compounds, 1.9% hits; AID 651965, 2013; active = well fitted falling curve with a large enough effect; inconclusive = small, poorly fitted or top-dose-only effect; inactive = no such curve, though single readings can be large or run the other way; further: potency means the concentration at half of the fitted maximal effect; the source files actives as falling curves though it sought activators and does not explain the sign; nearly all actives have a fitted effect of over 65% in size; many hits overshoot -100%
# Target sequence (P80244 whole entry, looked up): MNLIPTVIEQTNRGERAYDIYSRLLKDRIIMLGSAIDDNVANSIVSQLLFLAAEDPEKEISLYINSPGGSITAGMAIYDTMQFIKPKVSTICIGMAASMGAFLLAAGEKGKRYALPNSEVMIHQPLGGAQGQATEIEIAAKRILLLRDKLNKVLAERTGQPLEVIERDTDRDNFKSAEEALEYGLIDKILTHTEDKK
#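 Purified B. subtilis ClpP, 10 microg/mL final in Tris/HCl pH8 with KCl, BSA, glycerol and Tween-20, cleaved an Abz/nitrotyrosine-quenched decapeptide. Fluorescence (ex 320, em 430) was read at 0 and 20 min at room temperature. Delta was normalized to 5.8 microM ADEP and DMSO/no-enzyme controls.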
# Menin-MLL FL inh: qHTS Assay for Inhibitors Targeting the Menin-MLL Interaction in MLL Related Leukemias: Competition With Fluorescein Labeled MLL-derived Peptide. 290,000 tested, under 10 active. Fluorescence polarization, fluorescein-MLL peptide displacement from menin. FP activity change, % at 61.4 µM; inconclusive = falling polarisation curve, or a change in total fluorescence; inactive = total fluorescence flat and polarisation flat or rising; no compound was filed as active; the % refers to the polarisation; negative = inhibition;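 further: % of control where 0% means no effect; inhibitors lower the polarisation; unlabelled MLL peptide was the positive control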
# D2 potentiator: Beta-Arrestin HTS for Positive Allosteric Modulators of the Human D2 Dopamine Receptor: Potentiators | DiscoveRx D2 beta-arrestin cells, luminescence, 90 min; 100% = 57 uM dopamine signal | potentiation, % (concentration not given with the values) | 360,000 compounds, 0.23% hits | AID 624464, 2012; active = potentiation of 50% or more; inconclusive = 30% to 50%; inactive = 30% or less;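 further: tested on top of an EC20 dose of dopamine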
#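 D2 cells co-treated with compound plus 50 nM dopamine (EC20) for 90 min at 37 deg C to detect potentiation. Beta-arrestin recruitment was read as enzyme-fragment luminescence after 1 h at ambient temperature. Full response was set by 57 uM dopamine.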
# gsp antagonist: qHTS for Antagonists of gsp, the Etiologic Mutation Responsible for Fibrous Dysplasia/McCune-Albright Syndrome: qHTS. gsp-mutant cells, cAMP HTRF, 30 min; control for the full effect not named in the record. Potency, µM (series often up to 76.9 µM), without a hit: at the highest dose activity change, negative = inhibition, most hits filed as inhibitors. 340,000 compounds, 0.4% hits. AID 624288, 2012; active = falling curve of any shape with a large fitted effect; inconclusive = falling curve, mostly with a smaller effect; inactive = flat or rising curve; cell line not stated here;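 further: intracellular cAMP measured with PDE inhibitor Ro 20-1724 present during compound exposure; potency means the concentration at half of the fitted maximal effect; on the % scale 0 is the no-effect control and ±100 the full control effect; nearly all actives have a fitted effect of over 65% in size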
#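 HTRF cAMP read-out (cAMP-d2 plus anti-cAMP antibody-K in lysis buffer, 30 min RT). Before lysis, cells are exposed to compounds with […] for 30 min at 37C in DPBS containing Ca/Mg, BSA and Tween 20.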
# Sfp inh: qHTS Assay for Inhibitors of Bacillus subtilis Sfp phosphopantetheinyl transferase (PPTase) | 4'-phosphopantetheinyl transferase ffp (Bacillus subtilis), Q9F4F7 | Biochemical Sfp PPTase activity, qHTS | Potency, µM, for inactives: max response, negative = inhibition, actives largely listed as inhibitors | 310,000 compounds, 3.5% hits; active means well fitted inhibition curve with a large enough effect; inconclusive means small, poorly fitted or top-dose-only effect, or another doubt; inactive means no such curve, though single readings can be large or run the other way;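 further: the enzyme is Sfp with the accession as filed and its product quenches rhodamine fluorescence; potency means the concentration at half of the fitted maximal effect; 0% = enzyme reaction without inhibitor and -100% = no enzyme wells; top concentration of the series not given in the record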
#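 With Hepes-Na pH 7.6 buffer containing 10 mM MgCl2, Sfp (15 nM) modified BHQ-2-YbbR (12.5 uM) using rhodamine-CoA (5 uM). Two reads 30 minutes apart at 525/598 nm yielded each well's rate.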
# The depositor's hits bear a star; ? = inconclusive; / = no result given; & = joins results of further samples; [ ] = another dose, or the depositor's remark.
SMILES,TRPV1 PAM,gsp ag,ClpP mod,Menin-MLL FL inh,D2 potentiator,gsp antagonist,Sfp inh
C=C(C)c1cccc(C(C)(C)NC(=O)NCCCN2CCCC2=O)c1,7,1%,-1.2%,1.8,1,7%,-4%
O=C(COc1ccc(-n2cnnn2)cc1)Nc1ccc(F)c(F)c1F,-2,-8%,0.5%,/,-3,10%,/
CCC(C)Nc1nc2c(c(=O)[nH]c(=O)n2C)n1CCCc1ccccc1 (stereo unspecified),-3,16%,/,-1.0,3,9%,15%
COc1ccc(CN2C3CCC2CC(NC(=O)c2cc(OC)c(OC)c(OC)c2)C3)cc1 (stereo unspecified),6,-1%,2.2%,-8.3,-3,6%,10%
Cc1nc(Sc2nnnn2-c2ccccc2)c(C#N)c(C)c1C,/,13%,0.6%,0.9,-3,-14%,-16%
S=C(Nc1ccc(Cl)c(Cl)c1)N1CCOCC1,-6,21%,-12%,-1.6,-20,9%,-8%
Cc1cc(OC(=O)c2ccc(S(=O)(=O)N(C)C)cc2)c([N+](=O)[O-])c(=O)[nH]1,-1,-49%[inhibitor],-0.4%,-4.4,0,2%,21%
O=C(CCN1C(=O)C2CC=C(Cl)CC2C1=O)NCc1ccco1 (stereo unspecified),12,24%,-0.5%,3.7,-4,-8%,-25%
COc1cc(NC(=O)CCc2c(C)noc2C)c(C(=O)O)cc1OC,/,-18%,-14%,/,2,/,/
Clc1ccc(CSc2ncccn2)cc1,-2,11%,1.1%,2.7,-11,8%,-6%
c1ccc(C(Cc2nc(-c3ccccn3)no2)c2ccccc2)cc1,-25,12%,25%,3.3,?,-21%,-32%
COc1ccc(/C=N/N2C(=O)c3ccccc3C2=O)cc1,-8,11%,1.5%,-3.8,-9,5%,-3%
COc1ccc(OS(=O)(=O)c2c(C)noc2C)cc1,-1,?,/,1.9,0,5%,22%
COC(=O)c1ccc(S(=O)(=O)NCCSc2nnc3c4ccccc4n(C)c3n2)cc1,-5,12%,-0.1%,1.6,-8,-16%,7%
C=CCNC(=O)N1c2ccccc2Sc2ccccc21,-1,-77%[inhibitor],0.7%,4.0,-21,-13%,9%
C=CCCCCCCCCC(=O)NNC1=CC(=O)CC(C)(C)C1,-30,18%,-2.2%,-0.7,12,1%,20%
CCn1c(SCC(=O)Nc2ccc(OC)cc2)nc2c1c(=O)n(C)c(=O)n2C,4,11%[15.4 µM],/,/,0,6%,-1%
CC1CCCC(NC(=O)COC(=O)c2cc(S(=O)(=O)N3CCCCC3)ccc2N2CCOCC2)C1C (stereo unspecified),-15,?,-2.2%,-9.0,-1,-12%,-2%
CCCC(c1nnnn1Cc1ccco1)N1CCN(C(=O)c2ccco2)CC1 (stereo unspecified),9,16%,1.5%,2.5,-6,6%,-2%
Cc1cc2cc(CN(Cc3cccs3)S(=O)(=O)c3ccc4c(c3)OCCO4)c(=O)[nH]c2cc1C,-10,0%,-12%,1.5,-23,4%,7%
CC(=O)Nc1ccc(C2Nc3cc(C)c(C)cc3NC3=C2C(=O)CC(C)(C)C3)cc1 (stereo unspecified),0,?,1.2%,6.1,-14,-3%,-7%
CC(=O)c1ccc(N/C=C/C(=O)c2ccc(Br)cc2)cc1,1,2%,-0.6%,-0.7,20,7%,6%
Cn1nnc(NC(=S)NC(=O)Cc2ccccc2)n1,1,14%,/,-3.6,-22,8%,-27%
Cc1ccc(C(=O)O)c(C(=O)Nc2nc3ccccc3s2)c1,8,?,0.7%,-1.8,-5,8%,23%
COc1ccc(S(=O)(=O)N2CCCC(N(C)CCc3ccccc3)C2)cc1OC (stereo unspecified),?,16%,-0.5%,-2.5,-2,7%,8%
# Later entries.
SMILES,TRPV1 PAM,gsp ag,ClpP mod,Menin-MLL FL inh,D2 potentiator,gsp antagonist,Sfp inh
O=S(=O)(c1ccccc1)N1CCN(c2cccc(Cl)c2)CC1,2,-12%,/,3.0,0,-4%,14%
COc1ccc(N(C)C(=O)c2oc(=O)c3ccccc3c2-c2ccc(C)cc2)c(OC)c1,4,14%,-1.5%&-2.9%,-0.2,-3,-21%,3%
COc1ccc(OC)c(CCNC(=O)c2ccc(CS(=O)Cc3cccc(Cl)c3)o2)c1 (stereo unspecified),4,16%,0.8%,1.1,-1,-10%,-3%
CCOC(=O)C1=C(N)OC2=C(C(=O)CC(C)(C)C2)C1c1ccc(C)s1 (stereo unspecified),-2,-6%[15.4 µM],/,-2.5,-1,-19%,?
Cc1ccc(CSCC(=O)N(C)CC(=O)Nc2cccc(F)c2)cc1,-18,6%[15.4 µM],/,/,2,-10%,/
O=c1oc2ccccc2c(O)c1Cc1cc(Cl)c2cccnc2c1O,-13,-31%[inhibitor][15.4 µM],/,-0.4,-3,4%,26%
Cc1cc([N+](=O)[O-])nn1CC(=O)Nc1nccs1,-6,?,-0.6%,3.2,-11,6%,-4%
CCC1(O)c2ccccc2-c2ncccc21 (stereo unspecified),0,0%,-5.7%,2.0,-25,14%,17%
CCOC(=O)c1c(N)sc(C(=O)N2CCCCCC2)c1C,4,23%,-0.6%,1.0,1,4%,1%
CN1CCN(S(=O)(=O)c2ccc(N3CCN(c4ccccc4O)CC3)c([N+](=O)[O-])c2)CC1,-12,-6%,-2.7%,/,27,1%,/
COCCn1c(C)cc(C2=NNC(=Nc3ccc(Cl)cc3Cl)SC2)c1C,5,11%,-3.4%,5.4,-3,7%,56µM*
CN1CCN(c2nc3cc(C(F)(F)F)ccc3n3cccc23)CC1,/,/,-20%,-1.1&21,-30,-10%,?
O=C(NCc1ccccn1)C(C(=O)c1cccc([N+](=O)[O-])c1)n1cc(Cl)ccc1=O (stereo unspecified),3,7%,-5.4%,-2.5,-5,11%,0%
COC(=O)c1[nH]c2ccc(C)cc2c1NC(=O)CN1CCN(Cc2ccccc2)CC1,/,-10%,14µM*,4.6,-11,-19%,-4%
COc1cccc(C=Cc2nccc3ccccc23)c1OC,/,1%,-19%,/,-16,/,/
CCCOc1nc2c(c(=O)n(C)c(=O)n2C)n1CC,2,/,/,0.3,/,/,2%
O=C(Nc1ccc(F)cc1F)C1CCCN(c2ncnc3c2nc2n3CCCCC2)C1 (stereo unspecified),-10,10%,/,0.0,-1,-26%,6%
Cn1c(=O)[nH]c(=O)c2c1nc(N1CCc3ccccc3C1)n2CCSc1nc2ccccc2s1,23,-2%,1.6%,-0.4,-10,2%,-14%
O=[N+]([O-])c1cc(-c2ccc(C(=S)N3CCOCC3)o2)ccc1Cl,-2,-25%,/,16,-6,-14%,-95%
COc1ccc(COc2ccc(C3C(S(=O)(=O)c4ccccc4)CON3C)cc2OC)cc1 (stereo unspecified),10,7%[15.4 µM],/,-0.7,-3,-9%,15%
OCCOCCOCCn1c2ccccc2c2ccccc21,-2,6%,-14%,1.5,-1,-13%,10%
Cc1cccc(N2CCN(S(=O)(=O)c3c(C)nc4scc(C)n4c3=O)CC2)c1C,5,18%,-5.2%,/,-1,-4%,-6%
O=C(COc1ccccc1[N+](=O)[O-])OC1CCS(=O)(=O)C1 (stereo unspecified),30,-1%,/,0.8,-8,2%,22%
O=C(O)CC1NC(=O)N(C2CCCCC2)C1=O (stereo unspecified),-2,-18%[15.4 µM],/,1.0,-6,10%,18%
CN(CC(=O)Nc1cccc(F)c1)C(=O)C1CCN(C(=O)c2ccc(Cl)cc2)CC1,-18,28%,-0.7%,/,1,-6%,/

# Reprinted from the part before: 2 entries; new compounds follow.
SMILES,TRPV1 PAM,gsp ag,ClpP mod,Menin-MLL FL inh,D2 potentiator,gsp antagonist,Sfp inh
O=C(O)CC1NC(=O)N(C2CCCCC2)C1=O (stereo unspecified),-2,-18%[15.4 µM],/,1.0,-6,10%,18%
CN(CC(=O)Nc1cccc(F)c1)C(=O)C1CCN(C(=O)c2ccc(Cl)cc2)CC1,-18,28%,-0.7%,/,1,-6%,/
O=C(O)CC(NC(=O)c1ccc2c(c1)OCO2)c1cccc([N+](=O)[O-])c1 (stereo unspecified),-8,16%[15.4 µM],/,-5.1,-2,5%,7%
Cc1ccc(OCCNC(=O)C(C)SCC(=O)Nc2ccc(F)cc2)cc1 (stereo unspecified),/,6%,-8.7%,/,1,-1%,/
Cc1ccc(-n2nc(CC#N)c(C#N)c2N)cc1Cl,11,-6%,-5.9%,8.4,-2,9%,9%
CN(C)C(=S)NC(=O)C12CC3(C)CC(C)(CC(C)(C3)C1)C2,6,-35%[inhibitor],/,1.4,-2,16%,22%
Cc1ccccc1C(=O)NN1CCOCC1,7,15%,1.8%,4.5,6,9%,19%
COc1ccc(Nc2cc(C(=O)NCc3ccco3)c3ccccc3n2)c(OC)c1,26,-6%[15.4 µM],-1.4%,5.1,-4,-15%,-11%
O=S(=O)(c1ccc(Oc2ccc(Cl)cc2)nc1)N1CCOCC1,-9,-16%[15.4 µM],/,/,1,-16%,/
Cc1cccn2c(=O)c(C(=O)NC3CCCCC3C)c(O)nc12 (stereo unspecified),-8,-5%,28µM*,/,-20,-4%,/
Cc1cc(C)c(S(=O)(=O)c2ccccc2C)c(OCCN(C)C)n1,-3,-4%,/,0.5,-24,11%,17%
C=CCNC(=O)c1onc(CSc2ccncc2)c1C(=O)NCC=C,-15,/,-1.0%,1.6,-2,-1%,18%
CN(C1CCS(=O)(=O)C1)S(=O)C12CC3CC(CC(C3)C1)C2 (stereo unspecified),28,?,-1.9%,2.6,-24,1%,-10%
COc1ccccc1CNC(=S)Nc1cc(C)ccc1C,-16,-12%,/,-7.5,-7,2%,14%

# No enrichment for hits; any-hit rate near 5.1%.
